HCMV NEC inh = inhibitors of HCMV UL50-UL53 nuclear egress complex interaction; inhibition, % (concentration not given with the values); HTRF UL50-UL53 interaction, normalized percent inhibition; 190,000 compounds, 0.15% hits;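 active = both replicates at 50% or more, plus weaker picks with an unusually low signal ratio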;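 also: stock transfer was 100 nL into about 20 µL; 0% = negative control wells and 100% = wells with untagged competitor protein; inactives centre near -12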
The depositor's hits bear a star; & = joins results of further samples. A portion of the library, so the mix of outcomes need not match the whole.

SMILES	HCMV NEC inh
CC(C)(C)C(O)C=Cc1ccc2c(c1)OCO2 (centres undefined)	-53
COc1ccc(CC(=O)NCCc2cc3cc(C)c(C)cc3[nH]c2=O)cc1OC	-8
OCCCc1nc2n(n1)C(c1ccccc1)C=C(c1ccccc1)N2 (centres undefined)	-19
CC(C)(C)C(=O)c1cnc(Nc2ccccc2)s1	-18
Cc1ccc(-c2csc(NC(=O)c3ccccc3)n2)c(C)c1	8&-14
CN1CCC(=C2c3ccccc3CCc3cccnc32)CC1	12&-11&-50
O=c1[nH]ccc2c(S(=O)(=O)N3CCCNCC3)cccc12	4
O/N=C/c1cn(-c2ccccc2)nc1-c1cccnc1	-12
COC(=O)c1ccc2c(c1)[nH]c(=O)c1c(Nc3ccc(OC(F)(F)F)cc3)ncnc12	-10
CC(=O)Nc1nc2ccc(S(C)(=O)=O)cc2s1	-15
CCOC(=O)CSc1nc2c(c(=O)n1-c1ccccc1)SCC2	5
Cc1ccc(SC(=O)c2c(C)noc2COc2ccccc2)cc1	-3
COc1ccc(C(=O)COc2ccccc2)c(OC)c1	-11
CC(=O)OC1=C(C(=O)c2ccccc2)C(c2ccccc2)N(c2ccccn2)C1=O (centres undefined)	-2
Cc1ccc(C)c2[nH]c(=O)c(CCNC(=O)c3ccc4c(c3)OCO4)cc12	-16
COc1ccc(-c2nc3ccccc3[nH]2)cc1OC	2
COc1ccc(C(=O)N2CCn3c2nc2ccccc23)cc1	-6
O=C(NC1C2CC3CC(C2)CC1C3)c1cccc(Cl)c1 (centres undefined)	-19
CS(=O)(=O)Nc1c(O)ccc2c1CCCC2C1=NCCN1 (centres undefined)	-10
NC(=O)NC(Cc1ccccc1)C(=O)O (centres undefined)	-29
CC1=C(/C=C/C(C)=C\C=C\C(C)=C\C(=O)O)C(C)(C)CCC1	-14
CCC(=O)Nc1nnc(SCc2cccc(F)c2)s1	-11
Cc1cc(C)nc(SC2CCCCC2NS(=O)(=O)c2ccccc2)n1 (centres undefined)	-13
COc1ccc(C(N)CCO)cc1OC (centres undefined)	-5
CCN(CC)CCCCC1CCN(CC(=O)N2c3ccccc3C(=O)Nc3cccnc32)CC1	-4

(cont.)
SMILES	HCMV NEC inh
CC(=O)NCc1ccc2[nH]c(C)cc2c1	-10
COc1ccc(C(=O)N2CCN(CCn3c(C)ccc3C)CC2)cc1	-17
CC(C)CC1C(C#N)=C(N)OC2=C1C(=O)CC(c1ccccc1)C2 (centres undefined)	-13
CCCCCCCCCCCCCCCC[N+](C)(C)CCN(Cc1ccc(OC)cc1)c1ncccn1	-20
COc1ccc(C2SCCN2S(=O)(=O)c2ccccc2)cc1 (centres undefined)	-8
O=C(NCCCN1CCOCC1)c1cccnc1SCc1ccccc1Cl	-13
CC(Oc1ccccc1F)C(=O)N1CCN(C(c2ccccc2)c2ccccc2)CC1 (centres undefined)	4
Cc1ccc(-c2nc(Nc3ccccc3)n[nH]2)cc1	-5
CN(CCn1cccn1)Cc1ccc(-c2nc(-c3cccnc3)cc(=O)[nH]2)cc1	-36&-36
O=C(CSc1nccn1-c1ccc(Cl)cc1)NC1CCCC1	-13
CCN(CC)Cc1c[nH]c2c(C(=O)OC)cccc12	-9
CC(=O)c1ccccc1-c1ccc2ccccc2n1	-88
CCOC(=O)N1CCC(NC2CCc3c(c(C(=O)N(C)C)nn3Cc3ccccc3)C2)CC1 (centres undefined)	-10
CCCC(C)CN(CC)C1CCS(=O)(=O)C1 (centres undefined)	-2
Cc1ccc(SC(C(=O)c2ccccc2)C(=O)c2ccccc2)cc1	-18
CCCCC[C@H](O)/C=C/[C@H]1[C@H](O)CC(=O)[C@@H]1CCCCCCCO	14&14
Cc1nn(C)cc1CNc1cc(C(=O)NCc2cn3ccccc3n2)cc(S(=O)(=O)NC(C)C)c1	15
Cc1ccc(OCC(O)Cn2ccnc2C)cc1 (centres undefined)	10
COC(=O)CSc1nnc(-c2ccc(Cl)cc2Cl)o1	-14
COc1cc(NC(=O)c2ccc(N)nc2)cc(C(=O)Nc2cccc(C(F)(F)F)c2)c1	-14
O=C(Cc1ccccc1)NCCn1ccc2ccccc21	-6
Cc1ccc(C(=O)Nc2c(C(N)=O)oc3ccccc23)cc1C	-21
CC(C(=O)NC(C)(C)C)n1c(C(F)(F)F)nc2ccccc21 (centres undefined)	-1
COc1ccc(C(=O)NCC(=O)O)cc1	-14
CC(=CC(=O)Nc1ccccc1C(=O)O)c1ccc2ccccc2c1	-83

Additional results
SMILES	HCMV NEC inh
COC(=O)c1ccc(C(=O)N2CCNC(=O)C2Cc2ccccc2)cc1 (centres undefined)	6
C[C@@H]1C[C@H]2[C@@H]3C[C@H](F)C4=CC(=O)C=C[C@]4(C)[C@@]3(Cl)[C@@H](O)C[C@]2(C)[C@H]1C(=O)COC(=O)C(C)(C)C	-7
O=c1[nH]c(SCCO)nc2sc3c(c12)CCCC3	0
CS(=O)(=O)Nc1ccc(-c2cc(C=C3SC(N)=NC3=O)c[nH]c2=O)cc1	-18
CCCCC/C=C\C/C=C\CCCCCCCC(=O)OC[C@H](O)CO	-34&-34
O=C1Nc2ccccc2/C1=C\c1c(Cl)[nH]c2ccccc12	-24
COC(=O)c1ccc(Oc2coc3cc(OC)ccc3c2=O)cc1	-23
CCN(CC)c1ccc2cc(C#N)c(=O)oc2c1	-20
Cc1cc(-c2cccc3cccnc23)nc(N)n1	29&29
COc1ccc(C(=O)Nc2sc3c(c2C(N)=O)CCCC3)cc1OC	-26&-11&-13
COC(=O)/C=C\C(=O)Nc1ccc(NC(C)=O)cc1	-17
CC(C)(C)c1nc2c3cc[nH]c(=O)c3c3cc(F)ccc3c2[nH]1	-22&-2&0&-4
O=C(Nc1ccc(C(=O)c2ccccc2)cc1)c1ccccc1	6
CCn1c(C)nc2cc(NC(=O)C(F)(F)F)ccc21	8
CCOC(=O)C1=C(C)NC2=C(C(=O)CC(C)(C)C2)C1c1ccc2c(c1)OCCO2 (centres undefined)	-10
CCCSc1ncnc2c1oc1ccccc12	-14
O=C(Nc1nnc(-c2ccccc2)s1)c1cccc(C(F)(F)F)c1	1
NCCCc1nc2ccc(Cc3ccc4nc(CCCN)[nH]c4c3)cc2[nH]1	-10
CCOC(=O)c1ccc(N=Cc2c(O)cc(C)oc2=O)cc1	9&-8
C=C(Br)Cn1c(C(C)C)nc2ccccc21	-12
CCCCC/C=C\C/C=C\CCCCCCCC(=O)O	-16&-16&-13
O=c1cnn(C2OC(CO)C(O)C2O)c(=O)[nH]1 (centres undefined)	-66
c1coc(-c2ncc3ccccn23)c1	-48
CCCCC[C@@H](O)CC[C@H]1[C@H](O)CC(=O)[C@@H]1CCCCCCC(=O)O	1&1
C=C(C)Cn1c(CCNC(=O)c2cccs2)nc2ccccc21	-8

Additional results follow:
SMILES	HCMV NEC inh
C=CCNc1ncnc2c1cnn2-c1ccccc1	-17
O=Nc1c(-c2c(O)[nH]c3ccc(I)cc23)[nH]c2ccccc12	-10
CCOC(=O)c1cc(C#N)c(Sc2n[nH]c(C(C)(C)C)n2)nc1C(F)(F)F	1
C#CCC(c1nc2cc(Cl)ccc2c(=O)n1Nc1ccccc1)N(CCCN)C(=O)c1cccc(Cl)c1F (centres undefined)	-5
CC1CCN(C(=O)CSc2nnc(Cc3ccccc3)o2)CC1	15
COc1ccc2cc1Oc1ccc(cc1)C[C@H]1c3cc(c(OC)cc3CCN1C)Oc1c(OC)c(OC)cc3c1[C@H](C2)N(C)CC3	0&-16
COc1ccccc1/C=C1\SC(=O)N(CCC(=O)O)C1=O	-70
Cc1ccc(C)n1-n1cnc2scc(-c3cccs3)c2c1=O	-14
Cc1nc(-c2coc3cc(OCC(=O)O)ccc3c2=O)cs1	0
O=c1c2c3c(sc2ncn1CCF)CCCCC3	2
O=C(CCn1c(=O)sc2ccccc21)NC1=NCCS1	-5
CCc1ccc(/C=C2\SC(=S)N(CCCC(=O)Nc3cccnc3)C2=O)cc1	-11
CCCCC[C@H](O)/C=C/[C@@H]1[C@H](C/C=C\CCCC(=O)O)[C@@H](O)C[C@H]1O	-5&-5&3
CC(c1ccccc1)n1cnc2ccccc21 (centres undefined)	-3
CCCn1ncc(-c2ccnc(NC3CC(C)(C)NC(C)(C)C3)n2)c1C	-15&-15
Cc1ccc(C)n1C(CC(=O)O)c1ccsc1 (centres undefined)	-4
S=C(NC1CCCCC1)N1CCC(C2C=NC=N2)CC1 (centres undefined)	-103
COC1(NC(=O)c2ccccc2)C(C)=CC(=O)C=C1C	2
Cn1nc(C(F)(F)F)c(CNc2ccc(Cl)cc2)c1Cl	-2
COc1cc2c(cc1OC)N=CCC2	-31
CCCCCCCCC#CCC#CCC#CCCCC(=O)O	-9&-9&-19
CNc1nc(-c2ccccc2)nc(-c2ccccc2)c1C#N	-6
CN1C(=O)C(C)(C)c2cc(S(=O)(=O)NCc3ccccc3)ccc21	11
COc1ccc2c(-c3ccccc3)cc(=O)oc2c1	-40
Cc1cc(C)c(S(=O)(=O)N(C)C)c(C)c1	-7

(more compounds)
SMILES	HCMV NEC inh
COc1ccc(C(=O)Nc2sccc2C(N)=O)c(OC)c1	15&11
CNCC(O)Cn1c2ccccc2c2ccccc21 (centres undefined)	12&-6
O=C(N1CCCC1)C12CC3CC(CC(Cl)(C3)C1)C2	12&-10
CC(C)(C)c1nnc(SCC(=O)Nc2ccc(Br)cc2)n1N	-6
C=CCc1cc(C)ccc1OCC(O)Cn1c(CO)nc2ccccc21 (centres undefined)	-6
c1ccn2cc(-c3ccc4c(c3)OCCO4)cc2c1	-3
CCOC(=O)Cn1c(=O)c(-c2ccccc2N)nc2ccccc21	-82
CN1CCN(C(=O)c2ccc(-c3ccc(Br)cc3)o2)CC1	-27
Cc1sc2ncnc(SCc3ccco3)c2c1C	-13
COC(=O)c1ccc(N2C(=O)/C(=C\c3cccnc3)SC2=S)cc1	5
COc1ccc2c(c1)C=C(CNc1cccnc1)CO2	-22
COc1ccc2c(c1)c(CC(=O)N1CCOCC1)c(C)n2C(=O)c1ccc(Cl)cc1	-10&-10&-8&-8&-3
Cn1c(SCC(N)=O)nc2ccccc21	-20
C=C(C)[C@@H]1CCC(C)=C[C@H]1c1c(O)cc(C)cc1O	4&4
O=c1ccc2ccccc2[nH]1	-11
CC1CCc2nc(NC(=O)C(C)C)sc2C1 (centres undefined)	0
CC(C)CC(NC(=O)C(Cc1ccccc1)NC(=O)c1cnccn1)B(O)O (centres undefined)	-23
CCCCCCCCCCCCCCCC(=O)NC(C)C	-6&-6
CC12CCC(C(=O)N3CCCc4ccccc43)(OC1=O)C2(C)C (centres undefined)	-12
Cc1cc2cc(CNC(=O)CCC3CCCC3)ccc2n1C	-14
Cc1ccccc1NC(=O)CSc1[nH]c(=O)cc(C)c1C#N	-14
CC(C)(C)C(=O)NCCn1ccc2ccccc21	13
CCOC(=O)c1ccc2nc(NC(=O)c3ccco3)sc2c1	-14
CC1CC(C)CN(CC(O)Cn2c3ccccc3c3ccccc32)C1 (centres undefined)	0
O=C(/C=C/c1ccccc1)NC(NC(=S)Nc1cccc2cccnc12)C(Cl)(Cl)Cl (centres undefined)	4

By substructure, the compounds so far with a tert-butyl group (8)
SMILES	HCMV NEC inh
CC(C)(C)C(O)C=Cc1ccc2c(c1)OCO2 (centres undefined)	-53
CC(C)(C)C(=O)c1cnc(Nc2ccccc2)s1	-18
CC(C(=O)NC(C)(C)C)n1c(C(F)(F)F)nc2ccccc21 (centres undefined)	-1
C[C@@H]1C[C@H]2[C@@H]3C[C@H](F)C4=CC(=O)C=C[C@]4(C)[C@@]3(Cl)[C@@H](O)C[C@]2(C)[C@H]1C(=O)COC(=O)C(C)(C)C	-7
CC(C)(C)c1nc2c3cc[nH]c(=O)c3c3cc(F)ccc3c2[nH]1	-22&-2&0&-4
CCOC(=O)c1cc(C#N)c(Sc2n[nH]c(C(C)(C)C)n2)nc1C(F)(F)F	1
CC(C)(C)c1nnc(SCC(=O)Nc2ccc(Br)cc2)n1N	-6
CC(C)(C)C(=O)NCCn1ccc2ccccc21	13

Further entries.
SMILES	HCMV NEC inh
COc1c(O[C@@H]2O[C@H](CO)[C@@H](O)[C@H](O)[C@H]2O)cc2c(c1OC)-c1ccc(SC)c(=O)cc1C(NC(C)=O)CC2 (some centres undefined)	-53
O=C1CCNC(=O)N1	-23
CC(C)Oc1ccc(Cc2ccc(NC3=NCCN3)cc2)cc1	-21&-21
CC1CCCN(CC(O)COCc2ccc(Cl)cc2)C1 (centres undefined)	-14
CCCc1cc(=O)oc2cc(OC)ccc12	-2
COc1cc2c(c(OC)c1OC)-c1ccc(OC)c(=O)cc1C(NC(C)=O)CC2 (centres undefined)	-36
C#CCOc1ccccc1CCCCCC(=O)NS(C)(=O)=O	-6&-6
CCOC(CSc1nc2ccccc2[nH]1)OCC	14&1
Clc1ccc(OCc2cn3ccccc3n2)cc1	-23
CCCCCCOC(=O)N=C(N)c1ccc(NCc2nc3cc(C(=O)N(CCC(=O)OCC)c4ccccn4)ccc3n2C)cc1	-3
O=C(O)/C=C1\SC(=O)NC1=O	-14
O=C(CCSCc1cccc(F)c1)N1CCc2ccccc21	-12
CC(=O)NCc1nc2ccccc2n1Cc1ccccc1F	3
COC(=O)c1nc(-c2ccc(C)cc2)oc1N1CCOCC1	-12
O=c1c2c(nc(SCc3ccccc3)n1-c1ccccc1)CCS2	-10
Cc1cc2ccccc2n1CCNC(=O)c1cc2ccccc2oc1=O	-7
CC(C)n1cnc2c(Nc3cccc(Cl)c3)nc(N(CCO)CCCO)nc21	2
CCn1cc(CNC(=O)Nc2nnc(C(C)(C)C)s2)cn1	49&49
CCCc1ccc(OCC(O)CN2CCN(C)CC2)cc1 (centres undefined)	-22

In a second layout: results already given.
CC(C)Oc1ccc(Cc2ccc(NC3=NCCN3)cc2)cc1
  HCMV NEC inh: -21&-21

CC1CCCN(CC(O)COCc2ccc(Cl)cc2)C1 (centres undefined)
  HCMV NEC inh: -14

CCCc1cc(=O)oc2cc(OC)ccc12
  HCMV NEC inh: -2

COc1cc2c(c(OC)c1OC)-c1ccc(OC)c(=O)cc1C(NC(C)=O)CC2 (centres undefined)
  HCMV NEC inh: -36
